UCH37 DUB inh: human UCH37 deubiquitinating enzyme inhibition; Q9Y5K5; purified proteasome/UCH37, Ub-AMC cleavage fluorescence; inhibition, % (test concentration not listed); actives 0.33% (n = 330,000);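 active = mean of two replicates above 20%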;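 note: 0% = compound-free wells with enzyme and 100% = wells lacking proteasome; stock transfer was 100 nL into about 20 µL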
Target sequence (Q9Y5K5 whole entry, looked up): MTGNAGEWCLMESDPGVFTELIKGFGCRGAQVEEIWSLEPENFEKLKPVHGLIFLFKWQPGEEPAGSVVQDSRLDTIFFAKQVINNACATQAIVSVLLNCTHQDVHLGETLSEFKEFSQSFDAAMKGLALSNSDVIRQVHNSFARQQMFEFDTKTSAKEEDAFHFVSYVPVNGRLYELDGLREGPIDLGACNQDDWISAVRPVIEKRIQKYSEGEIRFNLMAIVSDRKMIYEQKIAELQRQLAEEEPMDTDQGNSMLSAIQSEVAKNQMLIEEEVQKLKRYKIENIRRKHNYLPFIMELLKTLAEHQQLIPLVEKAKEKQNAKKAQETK
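Signal – fluorescence, ex 355 nm, em 460 nm · System – Proteasome-bound UCH37 · Input – 0.15 nM proteasome as dispensed · Timing – 30 min preincubation with enzyme, 25 min cleavage at room temperature · Read-out basis – percent inhibition of cleavage signal versus uninhibited and no-proteasome wells · Medium – Tris-HCl pH 7.4 with ATP-MgCl2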
RanGTP-Imp inh: inhibitors of RanGTP-importin-beta interaction, primary screen, biochemical, FRET, CFP-Ran, YFP-importin-beta, homogeneous | actives 1.1% (n = 300,000) | inhibition, % (concentration not given with the values) | cell-free CFP-Ran/YFP-importin-beta FRET ratio | AID 2216;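 active = most replicates above 15%; inconclusive = exactly half above 15%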;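 note: 0% = DMSO wells and 100% = Ran loaded with GDP instead of GTP; wells of about 40 µL received 100 nL stock; the first replicate is given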
MLL AF4-AF9 inh: MLL-AF4/AF9 protein interaction inhibition. P42568. AlphaScreen, biotin-AF4 peptide binding to FLAG-AF9. inhibition, % at 10 µM. actives 0.47% (n = 350,000);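 active = every replicate reaching a set inhibition limit, whatever the replicate mean, cut at about 25% in these data; inconclusive = mean inhibition reaches that limit but some replicates miss it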;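 note: 0% = plate neutral control median and 100% = total signal loss; the record names both 10 and 1 µM as test concentration; the first replicate is given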
Target sequence (P42568 whole entry, looked up): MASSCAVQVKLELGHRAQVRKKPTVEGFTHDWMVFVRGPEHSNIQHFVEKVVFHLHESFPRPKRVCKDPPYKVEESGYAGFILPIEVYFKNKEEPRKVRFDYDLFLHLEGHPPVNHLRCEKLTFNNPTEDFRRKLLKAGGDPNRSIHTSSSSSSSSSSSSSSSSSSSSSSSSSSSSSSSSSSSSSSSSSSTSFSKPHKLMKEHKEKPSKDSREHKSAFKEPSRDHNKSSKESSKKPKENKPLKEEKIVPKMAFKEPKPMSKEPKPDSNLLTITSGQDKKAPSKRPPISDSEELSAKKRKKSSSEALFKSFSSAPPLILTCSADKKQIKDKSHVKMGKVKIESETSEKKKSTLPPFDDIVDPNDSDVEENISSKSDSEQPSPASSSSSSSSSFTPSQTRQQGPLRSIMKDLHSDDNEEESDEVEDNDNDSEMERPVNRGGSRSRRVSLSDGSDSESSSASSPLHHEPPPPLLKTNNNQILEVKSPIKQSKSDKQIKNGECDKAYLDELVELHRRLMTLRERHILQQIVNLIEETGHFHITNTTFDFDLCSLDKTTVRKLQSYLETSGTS
Ecoli growth: inhibitors of Escherichia coli growth; OD600, 23 h; active compounds read low; actives 0.21% (n = 330,000); AID 1053175; OD600 absorbance (test concentration not listed);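 active = OD600 absorbance below the run mean of sample wells minus 3.6 SD, in any replicate, cut at about 0.56 in these data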;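 note: stock transfer was 300 nL into about 60 µL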
HNF4A DNA FP: change in binding of human HNF4 alpha to DNA. HNF4a-FITC DNA binding, fluorescence polarization, 1 h. actives 0.3% (n = 360,000). AID 1224865. activity change, % at 10 µM; in the data active = activity change above about 30%, passing the limit was not always enough;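 note: controls were the assay level and a saturating level of protein; the project sought stronger binding though the title names inhibitors; some compounds called inactive have numbers as strong as hits; positive values seem to mean higher polarization but the record does not say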
Vif A3G: HIV-1 Vif–A3G interaction blockers – biochemical, TR-FRET, GST-Vif 1-94, biotin-A3G peptide, dose response retest, primary screen (AID 1117319); actives 0.57% (n = 260,000); inhibition, %, or IC50 in µM where a hit was titrated; TR-FRET GST-Vif / biotin-A3G peptide binding; higher % means a stronger effect; test concentration not given here; strong numbers were not always called active;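 active = above the screen mean plus three standard deviations and confirmed in dose response; inconclusive = results disagree or hit not tested in dose response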;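 note: Vif residues 1-94 fused to GST binding biotinylated APOBEC3G peptide 110-148; 0% = full assay without inhibitor and 100% = GST in place of GST-Vif; retest series ran down from 100 µM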
FGF22 binding: binders of recombinant human FGF22 by thermal shift; Q9HCT0; SYPRO orange fluorescence; percent of sucrose octasulfate shift, DMSO zero; calls only at 9.99 µM; actives 1.5% (n = 340,000);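 active = melting point raised past a set limit in the mean and every replicate; inconclusive = no clear call; three in four hits are not shown here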
Target sequence (Q9HCT0 whole entry, looked up): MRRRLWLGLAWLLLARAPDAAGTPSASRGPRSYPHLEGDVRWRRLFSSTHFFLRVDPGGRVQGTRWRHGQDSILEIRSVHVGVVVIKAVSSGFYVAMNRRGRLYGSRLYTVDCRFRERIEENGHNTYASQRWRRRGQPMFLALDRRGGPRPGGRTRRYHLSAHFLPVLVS
The depositor's hits bear a star; i = inactive; ? = inconclusive; . = no result given. A portion of the library; the hit share may differ from the screen's.

SMILES	UCH37 DUB inh	RanGTP-Imp inh	MLL AF4-AF9 inh	Ecoli growth	HNF4A DNA FP	Vif A3G	FGF22 binding
Cc1ccc(NC(=O)/C(=C/c2cccc([N+](=O)[O-])c2)NC(=O)C2CCCCC2)cc1	-0.1	-0.1	0.4	0.7	-1.7	-4%	i
COc1ccc(NC(=O)CSCC(=O)Nc2ccccc2N2CCCC2)cc1	1.4	.	3.5	0.67	2.1	4%	i
CSc1ccc(/C=C(\C#N)C(=O)Nc2cccc(C)c2)cc1	-18	0.4	4.0	0.7	-0.9	9%	i
Cc1[nH]c(=S)c(C#N)c2c1CCCC2	6.7	1.2	-4.6	0.69	-3.0	-4%	i
COc1ccccc1-[n+]1c(C)cc(/C=C2\Sc3ccccc3N2C)cc1C	20*	0.9	-5.2	0.36*	55*	.	i
N#Cc1ccc(C(c2nnnn2C2CCCC2)N2CCC(Cc3ccccc3)CC2)cc1 (stereo not given)	5.7	-11	.	0.7	0.9	10%	.
COC(=O)c1c(-c2ccccc2OC)sc2ccc(OC)cc12	2.7	.	-0.1	0.69	4.2	.	i
Cc1cc(C(=O)N/N=C/c2cccn2C)no1	.	3.3	-3.6	.	2.5	0%	i
Cc1ccc(CC(=O)NCCCn2ccnc2)cc1	1.2	0.9	-1.4	0.66	0.9	2%	i
O=C(C1CCCN(Cc2ccncc2)C1)N1CCc2ccccc2C1 (stereo not given)	4.6	-2.0	.	0.76	1.8	30%	.
COC(=O)CC1=NN(c2ccc(OC)cc2)C(=O)/C1=C\c1ccc(Cl)cc1	2.6	-4.1	9.8	0.69	1.2	11%	i
NC(=O)c1cn(-c2ccccc2)nc1-c1cccnc1	2.3	8.9	.	0.7	1.6	9%	.
COc1ccc(CCNCC(O)COc2cccc(Br)c2)cc1OC (stereo not given)	1.7	0.6	?	0.68	1.0	8%	i
CCOC(=O)c1cc(-c2ccco2)nc2c1c(C)nn2-c1ccccc1	-85	0.7	.	0.73	-0.2	26%	.
COc1ccc(N=C2SC(C(=O)Nc3ccc(F)cc3)CC(=O)N2C)cc1 (stereo not given)	4.4	2.2	-0.3	0.7	7.8	13%	i
O=C(c1ccccc1)N1CCC2(CC1)NCCc1[nH]cnc12	4.1	1.2	3.7	0.72	0.5	-4%	i
O=C(CN1C(=O)NC2(CCCC2)C1=O)NNC(=O)c1ccccc1F	2.5	.	-1.7	0.68	1.9	-5%	i
CCCCCCCCN1C(=O)[C@H](CC(=O)NCc2ccc(OC)c(OC)c2)C[C@@]2(C(=O)OCC)CCCC=C12	.	.	-1.5	.	0.6	.	i
CCOC(=O)c1c(/N=C/C2C(=O)CCCC2=O)sc2c1CCCC2	.	10	2.4	.	6.6	2%	i
Cc1cc(C(=O)NNC(=O)Nc2cccc(C(F)(F)F)c2)no1	2.8	-1.1	-2.1	0.71	-1.2	2%	i
CCOC(=O)Cc1csc(SCC(=O)Nc2oc(C)c3c(C)n[nH]c(=O)c23)n1	1.4	.	-3.7	0.6	-1.5	-4%	i
O=C(O)c1ccc(S(=O)(=O)NN=Cc2c[nH]c3ccccc23)cc1	.	.	-1.3	.	-3.6	6%	i
Cc1nn(C)c(Sc2ccccc2N)c1[N+](=O)[O-]	3.7	-1.4	-3.6	0.69	5.8	-1%	i
O=S(=O)(c1ccccc1)c1cnc(-c2ccccc2)nc1N1CCCCC1	1.2	?	-3.3	0.7	-2.1	-9%	i
Cc1cccc(NC(=O)Cc2cccs2)n1	0.7	-0.1	.	0.67	0.1	7%	.
CCC1=NN(C(=O)CCc2ccccc2)C(O)(C(F)(F)F)C1 (stereo not given)	2.3	1.9	1.0	0.7	1.9	7%	.
COc1cccc(NC(=O)C2(C)CCN2C(=O)C2CCCCC2)c1 (stereo not given)	.	.	0.8	.	2.7	.	i
COc1ccc(OC)c(NC(=O)CCCN2C(=O)C3C4C=CC(C4)C3C2=O)c1 (stereo not given)	-1.5	4.6	.	0.76	1.0	-2%	.
CCC(=O)N/N=C(\C)CC(=O)Nc1ccc(Cl)cc1	.	6.5	6.8	.	-0.7	.	i
O=c1[nH]cc(-c2ccccc2)c(=O)[nH]1	.	2.5	-45	.	5.4	9%	i

Ordered by molar mass (highest first): part of the list above.
SMILES	UCH37 DUB inh	RanGTP-Imp inh	MLL AF4-AF9 inh	Ecoli growth	HNF4A DNA FP	Vif A3G	FGF22 binding
Cc1cc(C(=O)NNC(=O)Nc2cccc(C(F)(F)F)c2)no1	2.8	-1.1	-2.1	0.71	-1.2	2%	i
CCC(=O)N/N=C(\C)CC(=O)Nc1ccc(Cl)cc1	.	6.5	6.8	.	-0.7	.	i
Cc1cccc(NC(=O)Cc2cccs2)n1	0.7	-0.1	.	0.67	0.1	7%	.

Next section
SMILES	UCH37 DUB inh	RanGTP-Imp inh	MLL AF4-AF9 inh	Ecoli growth	HNF4A DNA FP	Vif A3G	FGF22 binding
CCc1nnc(NS(=O)(=O)c2ccc(NC(=S)NC(=O)c3cccnc3)cc2)s1	-0.3	-2.6	-3.4	0.68	0.1	.	i
CC(c1ccccc1)n1cc(C(=O)NCC2COc3ccccc3O2)nn1 (stereo not given)	1.2	.	.	0.7	1.9	13%	.
COC(=O)c1cc(=O)n(-c2ccc(F)cc2)c(=Nc2ccc(F)cc2)s1	4.7	-0.6	27*	0.73	-0.1	12%	i
CC(=O)Nc1cccc(-c2csc(C(C)(O)c3cccc(F)c3)n2)c1 (stereo not given)	.	.	0.1	.	4.0	.	i
COc1ccc(Cn2c(=O)sc3ccccc32)cc1	0.6	4.2	.	0.72	-2.9	1%	.
Cc1c(Cc2ccccc2)sc(/N=C/c2c(O)ccc3ccccc23)c1C(N)=O	.	120*	.	.	38*	3%	.
COc1ccc(S(=O)(=O)Nc2ccc(Cc3ccncc3)cc2)cc1OC	4.4	-0.9	0.9	0.61	2.8	-2%	i
O=Cc1cn(-c2ccccc2)nc1-c1cccnc1	0.2	-7.5	-0.8	0.67	-0.6	-3%	i
CCCSc1nc(C)cc(C)c1C(N)=O	1.0	2.0	.	0.66	-3.6	6%	.
COc1cccc(CN(C)C(=O)c2ccc(OCC(=O)N3CCOCC3)c(OC)c2)c1	-0.8	.	0.5	0.71	-0.7	2%	i
COC(=O)c1c(N)sc(Cc2ccccc2)c1C	2.7	-3.4	-13	0.72	-0.9	2%	i
Clc1cccc(NCc2nnc(SCc3ccccc3)o2)c1	1.3	-0.4	.	0.66	1.2	-10%	.
CCOC(=O)Cn1c2ccc(F)cc2c2nc(C)sc21	3.4	7.5	-0.9	0.68	0.7	-1%	.
O=Cc1ccc(OCc2nnsc2Cl)cc1	3.1	-0.6	-1.3	0.67	4.0	8%	.
C/C(=N\NC(=O)C1(C)CC1(Br)Br)c1ccc(C)cc1C (stereo not given)	.	0.9	4.1	.	0.8	.	i

Entries above that bear a hit mark in HNF4A DNA FP.
SMILES	UCH37 DUB inh	RanGTP-Imp inh	MLL AF4-AF9 inh	Ecoli growth	HNF4A DNA FP	Vif A3G	FGF22 binding
COc1ccccc1-[n+]1c(C)cc(/C=C2\Sc3ccccc3N2C)cc1C	20*	0.9	-5.2	0.36*	55*	.	i
Cc1c(Cc2ccccc2)sc(/N=C/c2c(O)ccc3ccccc23)c1C(N)=O	.	120*	.	.	38*	3%	.

Further results
SMILES	UCH37 DUB inh	RanGTP-Imp inh	MLL AF4-AF9 inh	Ecoli growth	HNF4A DNA FP	Vif A3G	FGF22 binding
COc1ccc(N2CCN(CCCNC(=O)C(=O)c3c(C)n(C)c4ccccc34)CC2)cc1	3.5	-1.2	37*	0.66	0.9	.	i
COc1ccc(CN2CCN(CC(O)Cn3c4ccccc4c4ccccc43)CC2)cc1 (stereo not given)	6.2	-0.8	16	0.67	2.4	4%	i
COc1ccc(NS(=O)(=O)c2ccc(Cl)s2)cn1	1.7	4.1	-2.6	0.65	-17	.	i
CCCCOc1ccccc1NC(=O)c1ccco1	-0.6	-3.9	.	0.67	1.2	1%	.
N#CC1(Cc2ccc(Cl)cc2)c2ccccc2C=CN1C(=O)c1ccccc1 (stereo not given)	0.4	-3.0	.	0.73	7.8	-4%	.
CC1(C)Cc2c(cnn2-c2ccc(F)cc2)C(NC(=O)CCn2cncn2)C1 (stereo not given)	-2.8	-0.5	1.9	0.72	2.9	.	i
CC(=O)Nc1ccc(NC(=O)CSc2nc3ccccc3c(=O)n2CCCN2CCOCC2)cc1	2.3	.	8.0	0.66	1.2	-1%	i
CC(=O)c1cccc(NC(=O)COC(=O)COc2ccccc2C)c1	2.8	7.1	-2.1	0.66	1.4	2%	i
Cc1ccc(OCCNC(=O)Cc2ccc(S(=O)(=O)N3CCOCC3)s2)cc1	0.8	0.4	0.5	0.67	2.3	.	i
COCCN1Cc2cccc(C(=O)N3CCN(c4ccccc4)CC3)c2C1=O	0.5	-1.7	.	0.71	-2.2	4%	.
CC(=O)Nc1ccc(N2C(=O)c3cccc4c(O)ccc(c34)C2=O)cc1	17	-181	1.6	0.65	-97	.	i
O=C(NC(=S)NCC1CCCO1)c1ccccc1[N+](=O)[O-] (stereo not given)	1.2	1.7	-0.5	0.68	0.5	-2%	i
Cc1ccc(C(=O)OCC(=O)Nc2ccc3[nH]c(=O)[nH]c3c2)o1	4.8	5.5	-2.7	0.66	2.8	7%	i
O=C(c1ccc(C(F)(F)F)cc1)C1CCCN(C(=O)CCc2ccncc2)C1 (stereo not given)	1.6	1.5	-1.8	0.66	0.4	.	i
COC(=O)CCC1(C(N)=O)CCC(=O)c2ccccc21 (stereo not given)	.	.	-11	.	-0.5	0%	i
O=C(COc1ccccc1)N=C1SC2CS(=O)(=O)CC2N1c1cccc(F)c1 (stereo not given)	4.2	-0.1	-14	0.67	-0.2	.	i
COC(=O)c1cc(C)sc1NC(=O)C1C2C=CC(CC2)C1C(=O)O (stereo not given)	-1.0	-0.9	-1.3	0.73	-1.8	6%	i
CCOc1ccc(C(C)NC(=O)c2cccnc2OCC)cc1OCC (stereo not given)	3.4	0.1	0.8	0.64	8.8	8%	i
COc1cc(/C=C/c2ccc3cccc(O)c3n2)cc(Br)c1OC	-3.5	-0.4	-4.0	0.73	1.8	-1%	i
COC(=O)CC1SC(=O)NC1=Nc1ccccc1 (stereo not given)	-0.8	-0.6	.	0.71	5.5	2%	.
Cc1ccccc1-n1nc2c(c1NC(=O)C(C)(C)C)CS(=O)(=O)C2	-2.4	0.0	-1.9	0.63	2.8	0%	i
COC(=O)N1C2CCCCC2=NN(c2ccccc2)N1C(=O)OC (stereo not given)	.	.	-0.8	.	2.8	.	i
CCCCC[C@@H]1CCCCC[C@@H](O)C[C@@H](O)[C@@H](O)/C=C/C(=O)O1	.	.	-5.1	.	-3.0	.	i
CC(C)(C)c1ccc(OCC(=O)NCc2ccco2)cc1	2.2	?	.	0.73	2.2	-1%	.
N=C1CCCN1CC(=O)c1ccc(Cl)cc1	0.0	-1.5	-14	0.65	1.7	.	i
Cc1c(C2CC(=O)N(c3ccccc3)C2=O)[nH]n(-c2ccccc2)c1=O (stereo not given)	-1.5	-2.1	.	0.7	-0.3	31%	.
CN(Cc1ccon1)C(=O)C1CCN(C2CCN(CCCc3ccccc3)CC2)CC1	2.1	-0.1	11	0.71	0.3	.	i
CCC1Oc2ccc(Cl)cc2N(CC(=O)O)C1=O (stereo not given)	0.3	-4.4	-0.9	0.69	-2.1	0%	i
O=C(NCCc1ccccc1)C(=O)NCCC1CCCCN1S(=O)(=O)c1ccccc1 (stereo not given)	2.8	5.4	-13	0.7	2.6	.	i
CCN(Cc1ccccc1)C(=O)c1cccc(OC2CCN(C(=O)C3CC3)CC2)c1	7.9	0.1	-3.5	0.68	-0.5	.	i
C=CCNCCOCCOc1ccc(C)cc1[N+](=O)[O-]	3.5	3.0	.	0.7	-0.9	-8%	.

High-throughput results (PubChem)
